Rango complex inh: Rango-importin beta binding inhibition. Rango CFP/YFP FRET sensor + importin beta, 45 min. AID 540263. Potency, µM (titrated, usually from 92.2 µM), inactives show at the top dose inhibition of complex formation. 0.031% of 340,000 active. Q14974; active = rising FRET ratio curve, often small or poorly fitted; inconclusive = mostly compound fluorescence or quenching in the first reads; inactive = flat curves in all reads;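 further: potency means the concentration at half of the fitted maximal effect; 0% = DMSO wells and 100% = buffer wells lacking importin beta; nearly all actives have a fitted effect of over 15% in size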
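FRET biosensor Rango (snurportin 1 IBB between N-terminal EYFP and C-terminal Cerulean), 50 nM in PBS/1 mM DTT/0.02% Tween-20/0.1% BSA, preincubated 5 min RT with compound; 0.125 microM importin beta added, 45 min RT, CFP/YFP FRET ratio read.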
miR-21 FLuc: miR-21 reporter, rising signal; HeLa miR-21 FLuc reporter, luciferase, 48 h; Potency, µM (titrated, usually from 38.3 µM), for inactives: top-dose reporter change, positive = more light; 340,000 tested, under 10 active; AID 2288; active = well fitted rising curve with a large enough effect; inconclusive = small, poorly fitted or top-dose-only effect; inactive = no such curve, though single readings can be large or run the other way;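 further: % of control where 0% means no effect; miR-21 action dims this reporter so a rising signal means less miR-21 action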
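HeLa cells endogenously expressing miR-21, stably carrying CMV-driven firefly luciferase with a downstream miR-21 binding site, 2000 cells/well. Titrations up to approximately 40 uM, 48 hours; luciferase luminescence read.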
Rango dissoc inh: inhibition of RanGTP-driven Rango-importin beta dissociation | O95149+P62826 | Biochemical FRET Rango-importin beta, RanGTP-induced dissociation | Potency, µM (top dose mostly 46.1 µM), without a hit: at the top dose activity change, negative = inhibition | 0.071% of 340,000 active; active means falling FRET ratio curve, often poorly fitted, with flat reads before Ran was added; inconclusive means other falling curves, or compound fluorescence or quenching; inactive means flat or rising ratio curve;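 further: potency means the concentration at half of the fitted maximal effect; % of control where 0% means no effect; nearly all actives have a fitted effect of over 45% in size; -100% = wells without RanGTP and RCC1; the record marks most hits as doubtful in a second field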
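Rango (0.1 uM)–importin beta (0.25 uM) complex; RanGTP-RCC1 trigger; 45 min RT; CFP/YFP FRET read.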
GLA inh pH 4.5: alpha-galactosidase A (human) inhibition, pH 4.5. 230,000 tested, under 10 active. activity change, negative = inhibition, % at 105 µM. AID 1467. purified enzyme, 4-MU-alpha-Gal fluorescence, pH 4.5; inconclusive = small, poorly fitted or top-dose-only inhibition, or a rising curve; inactive = flat fitted curve, though single readings scatter; no compound was filed as active;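 further: 0% = full activity with enzyme and -100% = basal without enzyme; dose as in the result columns while the protocol names 77 µM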
Target sequence (P06280 whole entry, looked up): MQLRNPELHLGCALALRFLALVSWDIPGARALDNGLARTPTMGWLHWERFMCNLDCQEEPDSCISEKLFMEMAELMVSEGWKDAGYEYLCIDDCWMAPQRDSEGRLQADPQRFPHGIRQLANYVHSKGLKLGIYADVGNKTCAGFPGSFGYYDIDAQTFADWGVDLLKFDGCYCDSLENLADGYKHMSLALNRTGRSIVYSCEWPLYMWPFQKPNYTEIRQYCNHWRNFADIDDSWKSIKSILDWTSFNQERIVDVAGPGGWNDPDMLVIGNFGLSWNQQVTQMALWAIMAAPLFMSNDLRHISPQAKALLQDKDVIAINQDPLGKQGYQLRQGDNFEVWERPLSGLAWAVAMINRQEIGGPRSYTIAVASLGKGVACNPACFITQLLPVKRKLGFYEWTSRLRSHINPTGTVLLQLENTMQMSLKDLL
Starred values were filed as active, the others as inactive; ? = inconclusive; / = not tested or not shown; & = joins results of further samples. Some of the compounds tested; the hit share may differ from the screen's.

#	molecule	Rango complex inh	miR-21 FLuc	Rango dissoc inh	GLA inh pH 4.5
1	Cc1ccc(-c2nnc(SCC#N)n2N)cc1	-2.6%	1%	19%	-3
2	Cc1ccc(C(=O)CC(Nc2ccc(F)cc2)c2ccccc2)cc1 (configuration not stated)	3.1%	-12%	-9%	0
3	N#C/C(=C/c1ccc(-c2cc([N+](=O)[O-])ccc2Cl)o1)C(N)=O	-3.1%	8%	5%	4
4	CCOC(=O)c1cc(NC(=O)N2CCOCC2)c(C)nc1C	-1.1%	-6%	-7%	9
5	c1coc(CNc2nc3nonc3nc2NCc2ccco2)c1	?	21%	-22%	-3
6	CC(C)n1cc(/C=N\NC(=O)c2cc3c(ccc4ccccc43)o2)c2ccccc21	-2.5%	-1%	-15%	-8
7	COCCn1c(SCC(=O)NC(=O)NC2CCCC2)nc2ccccc2c1=O	-1.6%	/	-2%	/
8	Cc1nnc(SCc2cc([N+](=O)[O-])cc3c2OCOC3)[nH]c1=O	4.0%	-4%	-12%	4
9	CSc1nsc(SCC(=O)Nc2cccc(C(C)=O)c2)n1	-0.5%	-17%	-5%	6
10	COC(=O)CCCCC(=O)OC	1.2%	/	-8%	/
11	O=C(NCc1ccc(OC(F)(F)F)cc1)c1cc(-c2ccccc2)nn1CC1CC(c2cccnc2)=NO1 (configuration not stated)	-4.2%	/	?	/
12	COc1ccc(CNC(C)C(=O)Nc2ccc3ccccc3c2)cc1OC (configuration not stated)	6.0%	-15%	11%	?
13	O=C(COC(=O)c1cc(-c2ccc(F)cc2)nc2ccccc12)NCC1CCCO1 (configuration not stated)	-2.4%	-12%	1%	9
14	Cc1ccc(C(=O)N[C@H](C(=O)N2CCN(c3ccccc3F)CC2)C(C)C)cc1	-1.6%	1%	-3%	/
15	CCC(=O)N(CCO)Cc1cc2ccc(C)c(C)c2[nH]c1=O	2.3%	1%	6%	-4
16	N#Cc1cnc(SCC(=O)Nc2ccccc2C(F)(F)F)nc1N	-6.2%	-5%	-11%	-26
17	Cc1ccc(C)c(S(=O)(=O)N(C)c2ccc(OC(=O)C3CCN(C(=O)Nc4ccccc4)CC3)cc2)c1	-1.3%	/	2%	/
18	O=C(CCc1nnc(CCc2ccccc2)o1)N1CCCC1c1nccs1 (configuration not stated)	-0.1%	-17%	4%	6
19	CCC(C)NC(=O)CSc1nc2ccsc2c(=O)n1-c1ccc(OC)cc1 (configuration not stated)	-0.8%	-3%	-8%	3
20	O=C(NC1CCCCC1)NC1CCN(CC(=O)N2CCOCC2)CC1	3.5%	6%	-1%	-6
21	NC(=O)c1ccsc1NC(=O)CN1C(=O)C2CC=CCC2C1=O (configuration not stated)	?	-1%	-9%	-6
22	O=C(CCCc1ccccc1)Nc1ccnn1C1CCN(Cc2ccccn2)CC1	-2.9%	-2%	-15%	/
23	CC(C(=O)Nc1ccccc1Br)N1c2cccc3cccc(c23)S1(=O)=O (configuration not stated)	0.7%	-6%	1%	/
24	CC1CCCCN1Cc1c(O)ccc2c(=O)c(-c3ccccc3)coc12 (configuration not stated)	2.6%	-15%&-24%	5%	/
25	C/C(N)=C(/C#N)C(=O)COC(=O)CCSc1ccccc1	0.5%&-4.4%	-12%	2%&-8%	-6
26	CC(=O)OCCCN(C)CC/C=C1/c2ccccc2CSc2ccccc21	5.0%	/	1%	/
27	CCc1cccc(C)c1NC(=O)CN(C)Cc1ccccc1F	-0.4%	-6%	-3%	4
28	Nc1nnc(SCC(=O)NNC(=O)c2ccc([N+](=O)[O-])cc2)s1	0.1%	/	-2%	/
29	CC1CCN=C(N)S1 (configuration not stated)	-1.3%	/	-4%	0
30	Cc1ccc(C)c(S(=O)(=O)c2c[nH]c(=S)[nH]c2=O)c1	1.8%	1%	-15%	/

Of the compounds above, 4 have two or more sulfur atoms:
#	molecule	Rango complex inh	miR-21 FLuc	Rango dissoc inh	GLA inh pH 4.5
9	CSc1nsc(SCC(=O)Nc2cccc(C(C)=O)c2)n1	-0.5%	-17%	-5%	6
19	CCC(C)NC(=O)CSc1nc2ccsc2c(=O)n1-c1ccc(OC)cc1 (configuration not stated)	-0.8%	-3%	-8%	3
28	Nc1nnc(SCC(=O)NNC(=O)c2ccc([N+](=O)[O-])cc2)s1	0.1%	/	-2%	/
30	Cc1ccc(C)c(S(=O)(=O)c2c[nH]c(=S)[nH]c2=O)c1	1.8%	1%	-15%	/

Further records.
#	molecule	Rango complex inh	miR-21 FLuc	Rango dissoc inh	GLA inh pH 4.5
31	O=C(CNS(=O)(=O)c1c(F)cc(F)cc1Br)OCC(=O)N1CCCC1=O	-1.6%	/	-5%	/
32	CC(C)CC1(C(=O)NCCc2c[nH]c3ccccc23)C=CCN1C(=O)c1ccccc1 (configuration not stated)	-1.8%	-16%	-13%	2&-5
33	Cc1cccc(C)c1NC(=O)CCCSc1nnc(-c2ccco2)n1-c1ccccc1	4.4%	0%	37%	-10
34	COc1ccc(OC)c(N2CC(O)=C(c3nc4ccccc4s3)C2=N)c1	-0.5%	-2%	-12%	-25
35	Cc1[nH]n(-c2ccccc2)c(=O)c1N=Nc1ccc(F)cc1	?	-15%	?	/
36	COc1ccc(-n2nnnc2SCC(=O)Nc2cc(OC)c([N+](=O)[O-])cc2C)cc1	-1.7%	2%	15%	-4
37	CCC(C)(C)NC(=O)CN(Cc1ccccc1)C(=O)CCC(=O)Nc1nccs1	2.9%	-2%	-5%	/
38	CCN(C[C@H]1N[C@@](C)(C(=O)OC)[C@H]2C(=O)N(Cc3ccccc3)C(=O)[C@@H]12)S(=O)(=O)c1ccccc1	-0.2%	/	8%	/
39	CCOC(=O)Cn1nnnc1C(CC)N(Cc1cccs1)Cc1cc2cc(C)ccc2[nH]c1=O (configuration not stated)	-5.2%	0%	9%	-6
40	Cc1cccc(C)c1OCC(=O)N1CC2(C)CC1CC(C)(C)C2 (configuration not stated)	-2.0%	1%	-4%	-1
41	Cc1noc(C)c1S(=O)(=O)N1CCN(c2ccc(Cl)cc2)CC1	-1.9%	-1%	?	/
42	O=C(CCn1c(=S)oc2ccccc21)Nc1ccccc1F	?	-9%	11%	-2
43	COc1ccc(/C(C)=N\NC(=O)c2ccc(-c3ccccc3)cc2)c(F)c1	0.2%	-2%	6%	/
44	CC(=O)N/C(=C\c1ccccc1)C(=O)OC/C=C/c1ccccc1	-0.8%	-9%	-7%	/
45	COc1ccc(NC(=O)C2CC(c3ccc(Cl)cc3)=NO2)cc1 (configuration not stated)	2.8%	-1%	10%	/
46	Cc1cc(C(=O)C(C)OC(=O)c2ccc(NC(=O)CC#N)cc2)c(C)n1-c1ccccc1 (configuration not stated)	-1.2%	/	5%	/
47	NC(N)=NS(=O)(=O)c1ccc(NC(=S)NC(=O)/C=C/c2ccco2)cc1	0.0%	-8%	0%	-1
48	Fc1ccc(-c2nnc(-n3nnc4ccccc43)c3ccccc23)cc1	-0.6%	/	11%	/
49	O=C1CC(c2ccccc2)CC(O)=C1C=NCCN1CCN(C(=S)Nc2cccc(Cl)c2)CC1 (configuration not stated)	-2.3%	-5%	0%	-3
50	Cc1onc(-c2ccccc2Cl)c1C(=O)Nc1nnc(-c2cccc([N+](=O)[O-])c2)s1	0.0%	8%	9%	-4
51	COc1ccccc1C(=O)COC(=O)Cn1nc(C)c([N+](=O)[O-])c1C	3.1%	/	4%	/
52	FC(F)(F)c1nc(-c2cccs2)ncc1-c1nnnn1-c1ccc(Cl)cc1	-1.4%	?	-8%	-2
53	COC(=O)C(C)(C)ONC(=O)Nc1ccc(C)cc1	1.4%	-32%	8%	2
54	COc1ccccc1NC(=S)NCc1ccc(Cl)cc1	1.3%	6%	0%	/
55	CC(C)(C)c1ccc(-c2csc(NNC3=NCCCCC3)n2)cc1	-0.5%	-11%	0%	2
56	Cc1nn(S(=O)(=O)c2cccc([N+](=O)[O-])c2)c(C)c1S(=O)(=O)N1CCOCC1	-3.6%	-2%	22%	/
57	C=CC[C@@H](CC(=O)N[C@H](CO)Cc1ccccc1)C(=O)NCCOC(=O)[C@@H](CC=C)CC(=O)OC(C)(C)C	-2.8%	/	16%	/
58	COc1ccc(S(=O)(=O)N2CCN(c3ccc(F)cc3)CC2)cc1OC	-5.0%	0%	18%	/
59	Cc1ccc(C(=O)N/C(=C\c2ccccc2)C(=O)NCC2CCCO2)cc1 (configuration not stated)	-1.5%	-3%	-1%	6
60	O=C(CSc1ncn[nH]1)NNC(=O)c1ccccc1	-1.4%	/	10%	/
61	CCC(C)CCN1C(Nc2ccccc2)=NC[C@@H]1C (some centres not stated)	-4.0%	2%	2%	/
62	COc1ccc(OC)c(C(=O)CSc2nc3cccnc3n2C)c1	-2.1%	-1%	-12%	7
63	Nc1nc(-c2cccnc2)nn1C(=O)CCc1ccccc1	0.9%	/	1%	/
64	O=C(OCC(=O)N1CCCc2ccccc21)c1cc(Br)ccc1O	-0.8%	/	38%	/
65	COc1ccc(C(=O)OCc2nnc(-c3ccccc3)o2)cc1S(=O)(=O)N1CCOCC1	-1.3%	/	-9%	/
66	Cc1csc2cc(-c3cccc([N+](=O)[O-])c3)c(-c3cccc([N+](=O)[O-])c3)c[n+]12	-0.5%	5%	0%	3
67	COc1ccccc1NS(=O)(=O)c1ccc(C(=O)NCCCn2ccnc2)cc1	0.7%	/	-27%	/
68	COc1cccc(-n2nc(C(=O)Nc3ccc4c(c3)OCO4)c3ccccc3c2=O)c1	0.1%	1%	-21%	-3
69	COc1cccc(SCc2noc(C(=O)NCCN(C)C)c2C(=O)NCCN(C)C)c1	-5.3%	/	-5%	/
70	CCn1c(N)nc2c1c(=O)n(C)c(=O)n2C	-4.9%	-2%	22%	6
71	COc1ccc([C@@H](C)NC(=O)c2ccc3oc(C(C)C)nc3c2)cc1	-0.5%	-37%	17%	/
72	CC1(C)CC(=O)C=C(NCCN2CCN(C(=O)Nc3ccc(Cl)cc3)CC2)C1	-0.8%	0%	11%	0
73	COc1ccc(Cl)cc1C(=O)N1CCC2(CC1)CC(=O)c1ccccc1O2	-0.2%	/	-6%	/
74	CCOc1ccc(S(=O)(=O)N2Cc3ccccc3CC2C(=O)NCCCn2ccnc2)cc1 (configuration not stated)	0.1%	-4%	18%	0
75	CCOC(=O)N1CCN(c2ccc([N+](=O)[O-])cc2)CC1	12%	-4%	12%	2
76	O=C(Cn1cnc2c(OCc3ccccc3)ncnc21)NCCCn1ccnc1	-1.9%	/	-1%	/
77	Cc1cc(C(=O)Nc2cccc(S(=O)(=O)N3CCOCC3)c2)c2ccccc2n1	-1.9%	/	16%	/
78	Cc1cc(C(F)(F)F)n2nc(-c3cnn(C)c3C(F)(F)F)c(Cl)c2n1	-5.7%	-12%	-11%	-25
79	COc1cccc(-n2c(CCn3nc(C)c([N+](=O)[O-])c3C)n[nH]c2=S)c1	-4.6%	-6%	-14%	2
80	C/C(=N\NC(=O)CNc1cccc(C(F)(F)F)c1)c1ccc(Br)cc1	-3.1%	-1%	7%	5
81	CC1CCCC(C(=O)O)N1C(=O)CCSSCCC(=O)N1C(C)CCCC1C(=O)O (configuration not stated)	-2.8%	4%	1%	5
82	CCC(=O)NC(=S)Nc1ccc(NC(=O)c2ccc([N+](=O)[O-])cc2)cc1	-0.9%	-2%	2%	5
83	CC(C)(C)NCC(=Cc1ccccc1)C(=O)c1ccccc1	2.3%	/	0%	/
84	CCn1c(=S)sc2c(=O)n(CC(=O)Nc3cccc(OC)c3)c(C)nc21	2.5%	-1%	-9%	/
85	CCCOC(=O)c1ccc(-c2c(C)noc2-c2ccc(OC)cc2O)o1	1.0%	29%	?	-11

Assay outcomes deposited in PubChem BioAssay by National Center for Advancing Translational Sciences (NCATS).
